Screening data deposited in PubChem BioAssay by PCMD.
RmlCD inh 1536 – blocks M. tuberculosis RmlC and RmlD coupled enzymes; P9WH09+P9WH11; RmlC+RmlD coupled enzyme assay, percent inhibition; primary screen in compound mixtures; inhibition, % at 3.6 µM; actives 0.03% (n = 160,000); AID 1533; in the data active = inhibition mostly above about 34%, no sharp cut-off; only retested compounds are shown here; also: some results filed as inactive read as strong as hits
Target sequence (P9WH09 whole entry, looked up): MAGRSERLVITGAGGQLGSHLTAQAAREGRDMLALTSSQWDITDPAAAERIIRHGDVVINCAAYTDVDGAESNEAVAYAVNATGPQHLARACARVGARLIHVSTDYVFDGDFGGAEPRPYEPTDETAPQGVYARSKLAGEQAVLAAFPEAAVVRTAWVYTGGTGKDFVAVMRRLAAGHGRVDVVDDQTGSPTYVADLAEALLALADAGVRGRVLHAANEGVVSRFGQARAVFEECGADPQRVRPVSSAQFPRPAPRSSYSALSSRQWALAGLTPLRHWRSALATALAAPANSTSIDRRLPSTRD
Target sequence (P9WH11 whole entry, looked up): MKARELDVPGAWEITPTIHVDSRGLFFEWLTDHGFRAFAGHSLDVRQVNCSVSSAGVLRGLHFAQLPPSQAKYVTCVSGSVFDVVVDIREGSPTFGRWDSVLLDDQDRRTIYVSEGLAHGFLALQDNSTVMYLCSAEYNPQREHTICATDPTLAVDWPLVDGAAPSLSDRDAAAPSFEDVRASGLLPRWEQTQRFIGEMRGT
RmlCD inh 1536 retest – also measured in RmlCD inh 1536; calls as there; inhibition, %; measured here: mean retest inhibition;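 single compounds in two wells; values far above 100% likely come from compound fluorescence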
Numbers without * were called inactive. Not all compounds are listed; rates above refer to the full screens.

Second line of a record – RmlCD inh 1536	RmlCD inh 1536 retest
[1] COC(=O)c1cccc(CSc2nnc(-c3ccco3)n2-c2ccccc2)c1
  45.8	-14.6
[2] CC(C)c1ccccc1NC(=S)NC1CCN(Cc2ccccc2)CC1
  65.4	-9.8
[3] Cc1cc2c(NS(=O)(=O)c3ccc(F)cc3)cccc2nn1
  32.5	-17.5
[4] CC(C)OC(=O)c1cc(C(=O)c2cc(Br)ccc2O)coc1=N
  35.0	-0.7
[5] O=C1NC(=O)N(c2ccc(F)cc2)C(=O)/C1=C/c1ccc2c(c1)CCCN2Cc1ccccc1
  71.0	1.9
[6] Cc1cccc(C(=O)NC(=S)NNC(=O)COc2ccc(Cl)cc2)c1
  35.4	3.0
[7] CN(C)c1ccc(/C=C/C=C2/C(=O)NC(=O)N(c3ccccc3)C2=O)cc1
  40.1	-7.4
[8] Cc1ccc(Cn2c(SC3CCOC3=O)nc3ccccc3c2=O)cc1 (stereo not given)
  106.6	3.0
[9] O=C(Cn1cccn1)c1ccccc1
  34.2	-8.1
[10] CSCC[C@H](NC(=O)OC(C)(C)C)C(=O)NCC1CCC(C(=O)O)CC1 (stereo not given in full)
  36.6	-15.3

Fetched one by one from above:
Second line of a record – RmlCD inh 1536	RmlCD inh 1536 retest
[9] O=C(Cn1cccn1)c1ccccc1
  34.2	-8.1
[3] Cc1cc2c(NS(=O)(=O)c3ccc(F)cc3)cccc2nn1
  32.5	-17.5
[10] CSCC[C@H](NC(=O)OC(C)(C)C)C(=O)NCC1CCC(C(=O)O)CC1 (stereo not given in full)
  36.6	-15.3

In a second layout: entries from further up.
4	CC(C)OC(=O)c1cc(C(=O)c2cc(Br)ccc2O)coc1=N
5	O=C1NC(=O)N(c2ccc(F)cc2)C(=O)/C1=C/c1ccc2c(c1)CCCN2Cc1ccccc1
6	Cc1cccc(C(=O)NC(=S)NNC(=O)COc2ccc(Cl)cc2)c1
7	CN(C)c1ccc(/C=C/C=C2/C(=O)NC(=O)N(c3ccccc3)C2=O)cc1
Screen / compound no.	4	5	6	7
RmlCD inh 1536	35.0	71.0	35.4	40.1
RmlCD inh 1536 retest	-0.7	1.9	3.0	-7.4

New compounds follow.
Second line of a record – RmlCD inh 1536	RmlCD inh 1536 retest
[11] O=C(/C=C/Nc1ccccc1Oc1ccccc1)c1ccco1
  63.0	-18.3
[12] CC1(C)CC=C(NNC(=O)c2cccnc2)C(=O)C1
  36.1	5.3
[13] CCN(CC)C(=O)c1cc2c(=O)c3cc(Cl)ccc3oc2nc1C
  37.5	12.3
[14] COc1ccc(O)c(C(=O)c2cnn(-c3ccccn3)c2)c1
  70.4	11.7
[15] NS(=O)(=O)c1ccc(CCNC(=O)/C=C/c2ccccc2[N+](=O)[O-])cc1
  70.3	3.1
[16] CN(C)c1ccc(/C=C2/C(=O)NC(=O)N(CCc3ccc(F)cc3)C2=O)cc1
  46.4	10.3
[17] COC(=O)c1ccc(NC(=O)COc2ccc([N+](=O)[O-])cc2)cc1
  46.2	-8.8
[18] COc1ccccc1C1=NC(c2ccc(C)cc2)N=C1C (stereo not given)
  59.6	-15.9
[19] CCO/N=C/c1ccc(OC)c(Oc2nc(OC)cc(OC)n2)c1
  52.2	-5.4
[20] COc1cscc1C(=O)O
  70.4	3.0

Ordered by heavy-atom count (ascending): some entries from above
Second line of a record – RmlCD inh 1536	RmlCD inh 1536 retest
[20] COc1cscc1C(=O)O
  70.4	3.0
[11] O=C(/C=C/Nc1ccccc1Oc1ccccc1)c1ccco1
  63.0	-18.3
[19] CCO/N=C/c1ccc(OC)c(Oc2nc(OC)cc(OC)n2)c1
  52.2	-5.4

(more compounds)
Second line of a record – RmlCD inh 1536	RmlCD inh 1536 retest
[21] COc1ccc(N2CCN(C(=O)c3ccc(Br)cc3)CC2)c([N+](=O)[O-])c1
  32.8	-12.7
[22] O=C1NC2=C(C(=O)OC2)C(c2ccc(OC(F)(F)F)cc2)N1 (stereo not given)
  49.8	-37.2
[23] CC(C)(C)C(=O)Nc1ccc(F)cc1[N+](=O)[O-]
  48.8	-7.2
[24] Nc1ccc2nc(SCC(=O)N3CCN(c4ccccc4)CC3)sc2c1
  37.3	1.7
[25] Cc1ccc(NC(=O)/C=C\C(=O)O)c([N+](=O)[O-])c1
  49.9	0.2
[26] CC(C)(C)NC(=O)CSc1nc2ccccc2c(=O)[nH]1
  48.0	-10.4
[27] CCCCOc1ccc(/C=C/C(=O)Nc2ccc(C(N)=O)cc2)cc1
  46.7	16.3
[28] Nc1ncnc(Sc2ccccc2)c1[N+](=O)[O-]
  36.6	5.3
[29] CCN(CC)c1ccc2c(C)c(CN3CCOCC3)c(=O)oc2c1
  39.5	-64.6
[30] CCc1nnc(NC(=O)[C@@H](NC(=O)c2ccc(C(C)(C)C)cc2)C(C)C)s1
  62.1	-17.7

Continuation:
Second line of a record – RmlCD inh 1536	RmlCD inh 1536 retest
[31] O=C1c2ccccc2C(=O)N1CSc1nnc(Nc2ccccc2F)s1
  108.8	-5.3
[32] OCCNCCOCCOc1ccccc1-c1ccccc1
  93.5	-2.7
[33] C/C(=N\NC(=O)Cc1c(C)[nH][nH]c1=O)c1ccc2ccccc2c1
  88.6	14.2
[34] O=C(c1cccs1)[C@@H]1[C@@H]2C(=O)N(Cc3ccc4c(c3)OCO4)C(=O)[C@@H]2C2c3ccccc3C=CN21 (stereo not given in full)
  37.4	-1.9
[35] COc1ccc(Cl)cc1NC(=O)[C@@H]1CCCN1C(=O)c1cccs1
  65.7	-19.9
[36] CC(C)Cc1nc2sc3c(c2c(=O)n1N)CC(C)(C)OC3
  102.9	9.7
[37] COC(=O)/C(C#N)=C/c1c[nH]c2ccccc12
  33.5	-0.3
[38] CSc1ccccc1NC(=O)Nc1ccccc1Cl
  48.7	-9.7
[39] Nc1ccc2oc3ccccc3c2c1
  37.4	-12.5
[40] CCc1nnc(N2C(=N)SCC2=O)s1
  47.2	-3.0

Further entries follow:
Second line of a record – RmlCD inh 1536	RmlCD inh 1536 retest
[41] O=C(c1ccccc1)c1cnc[nH]1
  41.2	-8.8
[42] CCNc1nc(NCC)nc(N(C#N)C(C)C)n1
  35.6	-5.5
[43] COc1ccc(OCC2CCCN(Cc3nc(CC4CC4)no3)C2)cc1 (stereo not given)
  53.0	-6.6
[44] CC1CCN(CC(O)COc2cccc(F)c2)CC1 (stereo not given)
  51.4	-19.8
[45] CCn1c(=N)n(CC(=O)c2cccc(OC)c2)c2ccccc21
  33.7	-9.3
[46] Cc1ccc(S(=O)(=O)Nc2ccc3c(c2)CCC3)cc1C
  30.8	1.8
[47] COc1ccc(CNC(=O)COC(=O)Cc2ccsc2)cc1
  40.6	-7.3
[48] CCCC(=O)n1nc(-c2cccnc2)nc1NCc1ccccc1
  33.5	-18.1
[49] CC(OC(=O)c1ccccc1Br)C(=O)Nc1nc(-c2cccc([N+](=O)[O-])c2)cs1 (stereo not given)
  102.2	4.1
[50] CCOc1ccc(NC(=O)CC2C(=O)N(c3ccc(OC)cc3)C(=O)N2CCc2ccc(OC)c(OC)c2)cc1 (stereo not given)
  105.2	0.8

(more compounds)
Second line of a record – RmlCD inh 1536	RmlCD inh 1536 retest
[51] Cc1nnc(SCCn2c(N3CCC(Cc4ccccc4)CC3)nc3c2c(=O)[nH]c(=O)n3C)s1
  36.5	3.1
[52] CN(C)c1ccc2c(c1)Sc1cc(N(C)C)ccc1N2C(=O)c1ccccc1
  50.5	-7.7
[53] O=c1cnnc(N/N=C/c2c[nH]c3ccccc23)[nH]1
  31.5	-7.0
[54] CCOP(=O)(OCC)C(NC(=O)c1cccs1)C(F)(F)F (stereo not given)
  32.4	13.5
[55] O=C(NCc1ccccn1)C(=O)NN=C1CCCCCCC1
  46.4	-14.2
[56] Cc1cc(C(=O)N/N=C/c2cc(Br)ccc2OC(=O)c2ccccc2)n[nH]1
  47.4	8.0
[57] Cc1nn(-c2ccc(C(=O)O)cc2)c2c1C(=O)CC(C)(C)C2
  36.0	-4.9
[58] COc1cc(NC(=O)C2=C(N3CCOCC3)/C(=C\c3ccc(Br)cc3)CC2)cc(OC)c1OC
  31.8	-8.7
[59] Cc1noc(C)c1COc1cccc(C(=O)Nc2cccnc2)c1
  45.1	7.9
[60] C=CCNC(=O)N[C@@H](Cc1ccccc1)C(=O)OC
  78.0	-30.4

Given bar-delimited: 7 of the compounds above
entry | SMILES | RmlCD inh 1536 | RmlCD inh 1536 retest
52 | CN(C)c1ccc2c(c1)Sc1cc(N(C)C)ccc1N2C(=O)c1ccccc1 | 50.5 | -7.7
55 | O=C(NCc1ccccn1)C(=O)NN=C1CCCCCCC1 | 46.4 | -14.2
51 | Cc1nnc(SCCn2c(N3CCC(Cc4ccccc4)CC3)nc3c2c(=O)[nH]c(=O)n3C)s1 | 36.5 | 3.1
59 | Cc1noc(C)c1COc1cccc(C(=O)Nc2cccnc2)c1 | 45.1 | 7.9
57 | Cc1nn(-c2ccc(C(=O)O)cc2)c2c1C(=O)CC(C)(C)C2 | 36.0 | -4.9
60 | C=CCNC(=O)N[C@@H](Cc1ccccc1)C(=O)OC | 78.0 | -30.4
54 | CCOP(=O)(OCC)C(NC(=O)c1cccs1)C(F)(F)F (stereo not given) | 32.4 | 13.5

More compounds follow:
Second line of a record – RmlCD inh 1536	RmlCD inh 1536 retest
[61] Cc1ccc(CNC(=O)C2CN(S(C)(=O)=O)c3cc(Cl)ccc3O2)cc1 (stereo not given)
  50.7	-6.5
[62] COc1cc(NC(=O)Nc2cccc(Cl)c2)c(C(=O)O)cc1OC
  79.2	39.1
[63] Cc1cccc(C(=O)N[C@H](C(=O)OCC(=O)NC2CCS(=O)(=O)C2)C(C)C)c1 (stereo not given in full)
  58.6	10.6
[64] Cc1sc2nc(CSc3nnnn3-c3ccc(Cl)cc3)[nH]c(=O)c2c1C
  65.8	-4.4
[65] CCCc1ccc(C(=O)NNC(=O)c2ccc(Br)cc2)cc1
  93.8	-10.6
[66] Cc1c(C(=O)OCc2nc3scc(-c4ccccc4)c3c(=O)[nH]2)cccc1[N+](=O)[O-]
  66.0	8.5
[67] COc1ccccc1CNC(=O)C(NS(=O)(=O)c1ccc2c(c1)OCCO2)C(C)C (stereo not given)
  31.9	6.0
[68] CC1CC(C)CN(CC(O)COCCOc2ccc(Br)cc2)C1 (stereo not given)
  60.9	8.8
[69] CCCCn1c(SCC(=O)c2ccc3c(c2)NC(=O)CO3)nc2cc(S(N)(=O)=O)ccc21
  30.5	-7.0
[70] CC12CN3CCN(C1)CC(C)(C3)C2=NN
  54.6	6.4

New compounds follow:
Second line of a record – RmlCD inh 1536	RmlCD inh 1536 retest
[71] Cc1cccnc1NC(=S)Nc1ncccc1C
  33.1	-7.0
[72] CCCCn1c(SCC2CCCCO2)nc2cc(S(N)(=O)=O)ccc21 (stereo not given)
  78.1	-16.3
[73] COc1ccc(/C=C2\CCCc3c2nc2ccc(C)cc2c3C(=O)O)cc1O
  42.6	14.4
[74] COc1ccccc1CNC(=O)C1CCC(CNc2c(N3CCOCC3)c(=O)c2=O)CC1 (stereo not given)
  36.2	8.1
[75] Cc1ccc(S(=O)(=O)N2CCN(CC(=O)N/N=C\c3cccnc3)CC2)cc1
  30.8	-10.5
[76] O=C(CNC(=O)c1ccccc1F)OCC(=O)N1CCCc2ccccc21
  73.5	7.2
[77] CN=C(Nc1cccc(Cl)c1)SC1CC(=O)N(c2ccc(OC)cc2)C1=O (stereo not given)
  33.6	-12.8
[78] CCC(=O)Nc1nnc(/C=C/c2ccc(OC)cc2)s1
  70.4	-6.3
[79] COc1cccc2cc(C(C)N(CCCN3CCOCC3)C(=S)Nc3cccc(C)c3C)oc12 (stereo not given)
  39.5	-5.8
[80] N#CC1=C(N)n2c(s/c(=C\c3ccco3)c2=O)=C(C#N)C1c1ccco1 (stereo not given)
  40.3	-4.4

Later entries
Second line of a record – RmlCD inh 1536	RmlCD inh 1536 retest
[81] COc1cccc(/C=N/NC(=O)CNC(=O)c2ccco2)c1O
  99.6	24.6
[82] CCOC(=O)c1c(NC(=O)CNC2CCCCC2)sc(C)c1C
  31.2	-0.3
[83] O=C(CN1CCN(C(=O)c2ccco2)CC1)Nc1ccc(Cl)c(S(=O)(=O)N2CCOCC2)c1
  41.1	13.6
[84] Cc1nc(NC(=O)C(Cl)Cl)sc1C(=O)N(C)C
  33.8	9.3
[85] O=C(NC1CCCCCCC1)C1CCN(c2nc3ccccc3o2)CC1
  35.7	-17.2
[86] Cc1cc(C)n(C(=O)c2ccc(C)c(F)c2F)n1
  78.8	-29.7
[87] CN(CCO)C(=O)C(c1ccccc1)c1ccccc1
  44.0	-12.3
[88] CC(C)c1nnc(NC(=O)C2CCN(S(=O)(=O)c3ccc(-n4cnnn4)cc3)CC2)s1
  31.2	-0.1
[89] COc1ccc(C(CCNCc2ccc(OC)c(OC)c2)c2ccc(F)cc2)cc1 (stereo not given)
  82.1	9.5
[90] CC(C)(C)c1ccc(N=C2SCC(=O)N2Cc2cccs2)cc1
  30.6	-1.4
